Screens: PubChem, National Center for Advancing Translational Sciences (NCATS)
N370S GC – qHTS Assay for Inhibitors and Activators of N370S glucocerebrosidase as a Potential Chaperone Treatment of Gaucher Disease; Lysosomal acid glucosylceramidase (Homo sapiens), P04062; N370S GC spleen homogenate, 4MU-glucoside fluorescence; Potency, µM (titrated, usually from 59.4 µM), inactives show top-dose activity change, negative = inhibition, hits mostly inhibitors; actives 0.092% (n = 330,000); AID 2101, 2009;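 note: 0% = full enzyme activity and -100% = no enzyme basal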
FEN1 inh – qHTS Assay for the Inhibitors of Human Flap endonuclease 1 (FEN1). actives 0.35% (n = 390,000). Potency, µM (top dose mostly 114 µM), inactives show at the top dose activity change, negative = inhibition, usual class: inhibitors. Recombinant FEN1 flap cleavage, fluorescence, 15 min. AID 588795, 2011; note: nearly all actives have a fitted effect of over 65% in size
Target sequence (P39748 whole entry, looked up): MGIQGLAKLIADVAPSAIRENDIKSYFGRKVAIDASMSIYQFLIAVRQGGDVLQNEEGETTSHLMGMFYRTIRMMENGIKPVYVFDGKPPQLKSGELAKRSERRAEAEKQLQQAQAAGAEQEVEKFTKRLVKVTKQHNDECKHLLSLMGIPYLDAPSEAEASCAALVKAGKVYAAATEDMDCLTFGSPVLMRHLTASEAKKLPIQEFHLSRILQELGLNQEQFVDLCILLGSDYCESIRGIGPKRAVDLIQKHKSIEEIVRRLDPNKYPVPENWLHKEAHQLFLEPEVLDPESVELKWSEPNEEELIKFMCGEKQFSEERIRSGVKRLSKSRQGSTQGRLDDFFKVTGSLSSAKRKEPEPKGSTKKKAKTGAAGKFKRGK
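Quantitative HTS format: each compound was titrated, incubated with 10 nM nuclease for 15 min at room temperature, then challenged with flap substrate at 50 nM final. Signal change over 15 min gave concentration–effect curves.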
* hit, by the source's call; ? = inconclusive; / = not tested or not shown; & = joins results of further samples; [ ] = another dose, or the depositor's remark. Calls come from the whole dose curve; as a rule, active = well fitted curve in the direction sought with a large enough effect; inconclusive = small, poorly fitted or top-dose-only effect, or another doubt; inactive = no such curve, though single readings can be large; an effect the other way counts as inactive or inconclusive. Unless noted, % is set by controls: 0 for no effect and ±100 for the full control effect; potency is the fitted concentration of half-maximal effect. This is a subset, and most or all hits are left out here.

1. CCCCC/C=C\C/C=C\C/C=C\C/C=C\CCCC(=O)N[C@H](C)CO
2. O=Cc1cn(Cc2ccccc2[N+](=O)[O-])c2ccccc12
3. CCC(COC(=O)c1cc(OC)c(OC)c(OC)c1)(c1ccccc1)N(C)C (stereo unspecified)
4. CCCn1ncc(C(=O)O)c1C
5. CCOC(=O)c1c(N)n(Cc2ccccc2)c2nc3ccccc3nc12
6. C=CCN1C[C@H](C)N([C@H](c2ccc(C(=O)N(CC)CC)cc2)c2cccc(OC)c2)C[C@H]1C
7. O=C(Nc1ccccc1F)OC1CN2CCC1CC2 (stereo unspecified)
8. O=C(CN1CC=C(c2ccccc2)CC1)Nc1c(Cl)cccc1Cl

| compound no. | 1 | 2 | 3 | 4 | 5 | 6 | 7 | 8 |
| --- | --- | --- | --- | --- | --- | --- | --- | --- |
| N370S GC | 9.7%&-2.1%&-12.3% | 5.7% | 19.6%&-7.4%&3.4% | 1.7%[2.35 µM] | 4.4% | -4.9%&-7.0% | 4.6% | 4.9% |
| FEN1 inh | / | 11.2% | ? | 11.8% | -3.6% | / | 1.3% | 6.0% |

Reprinted from the part before: 4 compounds, followed by the next part.
5. CCOC(=O)c1c(N)n(Cc2ccccc2)c2nc3ccccc3nc12
6. C=CCN1C[C@H](C)N([C@H](c2ccc(C(=O)N(CC)CC)cc2)c2cccc(OC)c2)C[C@H]1C
7. O=C(Nc1ccccc1F)OC1CN2CCC1CC2 (stereo unspecified)
8. O=C(CN1CC=C(c2ccccc2)CC1)Nc1c(Cl)cccc1Cl
9. COc1ccc(N2C(=O)/C(=C/C=C/c3ccccc3[N+](=O)[O-])C(=O)NC2=S)cc1
10. Cc1ccsc1C(=O)C1CCCN(Cc2cccc(OCCO)c2)C1 (stereo unspecified)
11. C=CC1CN2CCC1CC2C(OC(=O)OCC)c1ccnc2ccc(OC)cc12 (stereo unspecified)
12. Cc1ccc(/C=C2/Sc3ccc(C(=O)N4CCC5(CC4)OCCO5)cc3NC2=O)cc1
13. CN1C[C@H](CNC(=O)OCc2ccccc2)C[C@H]2c3cccc4c3c(cn4C)C[C@@H]21
14. O=C(O)C1(c2ccc(Cl)cc2)CCC1
15. C#CCOC(=O)C1=CCCN(C)C1
16. Cc1ccc2c(c1)C(Cc1nc3ccccc3c(=O)n1-c1ccc(Br)cc1)C(=O)N2 (stereo unspecified)
17. CCN(CC)CCNCC(=O)Nc1ccc(Cl)cc1C(=O)c1ccccc1
18. O=C(c1ccccc1)c1cn(CC(=O)N2CCCc3ccccc32)c2ccccc12
19. CCC(=O)Nc1ccc(Cl)c(Cl)c1

| compound no. | 5 | 6 | 7 | 8 | 9 | 10 | 11 | 12 | 13 | 14 | 15 | 16 | 17 | 18 | 19 |
| --- | --- | --- | --- | --- | --- | --- | --- | --- | --- | --- | --- | --- | --- | --- | --- |
| N370S GC | 4.4% | -4.9%&-7.0% | 4.6% | 4.9% | -4.2% | 6.8% | 8.8% | -3.5% | -14.5% | 1.7% | -5.3%&3.7%&-2.7%&1.2% | / | / | 15.6% | 10.5% |
| FEN1 inh | -3.6% | / | 1.3% | 6.0% | ? | -0.9% | / | -5.7% | / | -10.1% | 16.5% | 3.4% | -0.9% | -19.7% | -9.6% |

3 compounds drawn at random from the list so far, as already listed:
11. C=CC1CN2CCC1CC2C(OC(=O)OCC)c1ccnc2ccc(OC)cc12 (stereo unspecified)
9. COc1ccc(N2C(=O)/C(=C/C=C/c3ccccc3[N+](=O)[O-])C(=O)NC2=S)cc1
13. CN1C[C@H](CNC(=O)OCc2ccccc2)C[C@H]2c3cccc4c3c(cn4C)C[C@@H]21

| compound no. | 11 | 9 | 13 |
| --- | --- | --- | --- |
| N370S GC | 8.8% | -4.2% | -14.5% |
| FEN1 inh | / | ? | / |
